Rango release inh: qHTS Assay for Inhibitors of RanGTP induced Rango (Ran-regulated importin-beta cargo) - Importin beta complex dissociation. 340,000 compounds, 0.071% hits. Biochemical FRET Rango-importin beta, RanGTP-induced dissociation. Snurportin-1 (Homo sapiens) + GTP-binding nuclear protein Ran (Homo sapiens) + Importin …. Potency, µM (doses to about 46.1 µM), for inactives: at the highest dose activity change, negative = inhibition; active means falling FRET ratio curve, often poorly fitted, with flat reads before Ran was added; inconclusive means other falling curves, or compound fluorescence or quenching; inactive means flat or rising ratio curve;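 note: potency is the fitted concentration of half-maximal effect; % of control where 0% means no effect; nearly all actives have a fitted effect of over 45% in size; -100% = wells without RanGTP and RCC1; the record marks most hits as doubtful in a second field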
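Rango FRET biosensor (snurportin-1 IBB flanked by N-terminal EYFP and C-terminal CFP10) at 0.1 uM, with 0.25 uM importin beta in PBS, 1mM DTT, 0.02% Tween-20, 0.1% BSA. 0.6 uM Ran, 2mM GTP and 0.2 uM RCC1 were then added for 45 min at room temperature. Inhibition read as loss of FRET rise.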
miR-21 FLuc: qHTS Assay for Modulators of miRNAs and/orActivators of miR-21 | Potency, µM (doses to about 38.3 µM), inactives show at the top dose reporter change, positive = more light | 340,000 tested, under 10 active | HeLa miR-21 FLuc reporter, luciferase, 48 h; active = well fitted rising curve with a large enough effect; inconclusive = small, poorly fitted or top-dose-only effect; inactive = no such curve, though single readings can be large or run the other way;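 note: % of control where 0% means no effect; miR-21 action dims this reporter so a rising signal means less miR-21 action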
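HeLa miR-21-FLuc reporter line, endogenous miR-21; 2000 cells/well in DMEM/10% FBS; compound titration up to ~40uM final, 48 h, 37 degree Celsius; luciferase detection reagent, 15 min lysis, CCD luminescence.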
GLA inh pH 4.5: qHTS Assay for Inhibitors of Human alpha-Galactosidase at pH 4.5 | Alpha-galactosidase A (Homo sapiens), P06280 | purified enzyme, 4-MU-alpha-Gal fluorescence, pH 4.5 | activity change, negative = inhibition, % at 105 µM | 230,000 tested, under 10 active; inconclusive = small, poorly fitted or top-dose-only inhibition, or a rising curve; inactive = flat fitted curve, though single readings scatter; no compound was filed as active;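 note: 0% = full activity with enzyme and -100% = basal without enzyme; dose as in the result columns while the protocol names 77 µM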
Target sequence (P06280 whole entry, looked up): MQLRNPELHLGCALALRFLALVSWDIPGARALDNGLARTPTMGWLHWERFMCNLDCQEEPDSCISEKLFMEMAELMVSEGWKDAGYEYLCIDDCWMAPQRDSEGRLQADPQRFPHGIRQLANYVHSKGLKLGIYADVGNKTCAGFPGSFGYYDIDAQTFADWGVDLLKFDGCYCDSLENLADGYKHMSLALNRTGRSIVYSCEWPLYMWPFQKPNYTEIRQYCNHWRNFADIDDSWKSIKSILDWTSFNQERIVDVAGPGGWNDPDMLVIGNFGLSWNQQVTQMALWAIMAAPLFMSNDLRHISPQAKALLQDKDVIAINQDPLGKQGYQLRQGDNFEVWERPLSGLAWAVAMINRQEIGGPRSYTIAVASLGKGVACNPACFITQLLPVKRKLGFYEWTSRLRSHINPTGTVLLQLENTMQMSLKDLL
Rango complex inh: qHTS Assay for Inhibitors of Rango (Ran-regulated importin-beta cargo) - Importin beta complex formation. Rango CFP/YFP FRET sensor + importin beta, 45 min. Potency, µM (highest dose often 92.2 µM), for the others: top-dose inhibition of complex formation. 340,000 compounds, 0.031% hits. AID 540263, 2011; active = rising FRET ratio curve, often small or poorly fitted; inconclusive = mostly compound fluorescence or quenching in the first reads; inactive = flat curves in all reads;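 note: potency is the fitted concentration of half-maximal effect; 0% = DMSO wells and 100% = buffer wells lacking importin beta; nearly all actives have a fitted effect of over 15% in size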
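FRET biosensor Rango (snurportin 1 IBB between N-terminal EYFP and C-terminal Cerulean), 50 nM in PBS/1 mM DTT/0.02% Tween-20/0.1% BSA, preincubated 5 min RT with compound; 0.125 microM importin beta added, 45 min RT, CFP/YFP FRET ratio read.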
Active calls of the source: *; ? = inconclusive; · = no result given. These rows are one share of the data (hit frequency here may not be typical).

Below each compound – Rango release inh, miR-21 FLuc, GLA inh pH 4.5, Rango complex inh
CCc1ccc(-c2ccc3nnc(SCC(N)=O)n3n2)cc1
    -9%, 0%, ·, -0.8%
O=c1[nH]c(/C=C/c2ccccc2)c([N+](=O)[O-])c(=O)[nH]1
    -20%, 1%, ·, -4.1%
CCCCCCCNC(=O)C1(CC2CC(c3ccc(Cl)cc3)=NO2)CCN(C(=O)c2cc(OCC)c(OCC)c(OCC)c2)CC1 (stereo not drawn)
    6%, -4%, ·, 1.7%
Cc1nc(=S)n(-c2ccccc2)[nH]1
    7%, -5%, 6, -0.8%
O=C(COc1ccccc1)N1CCN(c2ncnc3c2cnn3-c2ccccc2)CC1
    -7%, 12%, -3, 2.5%
COCCn1c(SCCN2CCOCC2)nc2c1c(=O)[nH]c(=O)n2C
    1%, -2%, 3, 1.9%
C=CCn1c(SCC(C)=O)nc2sc3c(c2c1=O)CCC3
    -1%, -8%, ·, -1.1%
O=C(OCn1ncc(Cl)c(Cl)c1=O)c1cccc(C(F)(F)F)c1
    15%, ?, -24, ?
OC(CSc1c(Cl)cccc1Cl)CN1CCN(c2ccccc2F)CC1 (stereo not drawn)
    9%, -8%, -6, 1.2%
Nc1nc2c(ncn2C2C[C@H](O)[C@@H](CO)O2)c(=O)[nH]1 (stereo partly drawn)
    -2%, ·, ·, 1.8%
COc1cccc(C(C)N(C)Cc2nc(COc3ccccc3)no2)c1 (stereo not drawn)
    10%, -1%, 1, 4.3%
O=C(c1cc2ccccc2o1)N1CCN(C/C=C/c2ccccc2)CC1
    -1%, 1%, ·, 0.7%
COc1ccccc1C(=O)NCC(=O)N1CCN(c2ncccn2)CC1
    -13%, ·, ·, -3.0%
C[C@H](C(=O)O)c1n[nH]c(=O)c2ccccc12
    1%, 0%, -2, 4.1%
c1ccc2c(Cn3ccnc3)c[nH]c2c1
    0%, -6%, 0, ?
COCCn1c(SCC(=O)Nc2cccc(S(N)(=O)=O)c2)nc2cc(Cl)ccc2c1=O
    15%, 5%, 9, -2.8%
COc1cc(C(=O)N2CCN(c3ccccc3F)CC2)ccc1OCC(=O)N1CCOCC1
    -1%, ·, ·, 1.7%
CCCn1c(SCC(=O)Nc2nnc(C)s2)nnc1C1CC1
    8%, 5%, ·, -0.3%
OCCC1CN(Cc2cccc3nonc23)CCN1C1CCCCC1 (stereo not drawn)
    -18%, -2%, -22, 2.8%
Cc1cc(NC(=O)COC(=O)COc2ccc(Cl)cc2C)c([N+](=O)[O-])cc1C
    13%, -1%, -4, 1.7%
O=C(c1noc2c1CCCC2)N1CCN(c2ccccc2)CC1
    -5%, -27%, -7, 4.0%
CCOc1cc(C(=O)OC(C)C(=O)Nc2ccccc2OC)ccc1OCC(=O)N1CCOCC1 (stereo not drawn)
    -3%, ·, ·, -0.7%
CC(C)Cc1ccc(S(=O)(=O)N2CCOCC2)cc1
    -3%, -6%, 2, -0.8%
O=C(O)C1(Nc2ccc(Cl)cc2)CCCC1
    -6%, ·, ·, 0.8%
CC(C)(C)S(=O)(=O)/C(C#N)=N/Nc1ccc(S(N)(=O)=O)cc1
    11%, -1%, -19, 11%
Cc1ccc(OCc2nnc(SCC(=O)N3C(C)CCCC3C)o2)cc1 (stereo not drawn)
    -7%, -2%, ·, 0.1%
CC(C)[C@@H](C(=O)NC1CC1)N1C(=O)N2CCc3c([nH]c4ccccc34)[C@@]2(C)C1=O
    2%, 3%, ·, -1.4%
COc1ccc(CN2C(=O)c3cccc4cccc(c34)C2=O)cc1
    -10%, 6%, 2, 1.7%
COc1ccc(-n2cnc3cc(C(=O)NCC4CCCO4)ccc32)cc1 (stereo not drawn)
    -10%, -15%, ·, 3.3%
O=C(Nc1cccc(-c2nc3cccnc3s2)c1)c1ccc(Cl)nc1
    8%, -6%, -3, 0.4%
O=C(OCN1C(=O)c2ccccc2C1=O)c1cccc(OC(F)F)c1
    8%, 0%, ·, 3.3%
N#CCCCSc1ncccc1-c1nc2ccccc2[nH]1
    9%, -35%, -5, 1.2%
Cc1ccc(-n2nc(C)c3c(C)c(CCC(=O)Nc4ccc(CN5CCCC5)cc4)c(C)nc32)cc1
    -3%, -5%, -11, -0.2%
Cc1ccsc1/C=C1/CN(C)Cc2c1nc1ccccc1c2C(=O)O
    ?, 3%, -7, ?
C=C(C)Cn1c(CCNC(=O)c2ccco2)nc2ccccc21
    4%, 1%, ·, -0.4%
O=C(NC1CCCC1)C(c1ccncc1)N(Cc1cccs1)C(=O)c1csnn1 (stereo not drawn)
    -14%, -2%, -4, 2.4%
COc1ccc(OCCCC(=O)NCCc2ccccc2)cc1
    -8%, -3%, -8, 0.0%
COc1cc(C2NC(C(=O)O)Cc3c2[nH]c2ccccc32)cc(OC)c1OC (stereo not drawn)
    ?, -2%, 6, ?
Cc1cc(=O)[nH]c(SCC(=O)Nc2nnc(SCc3ccccc3)s2)n1
    11%, 3%, 0, 2.0%
COc1ccc(NC(=O)CN(C2CCCCC2)S(C)(=O)=O)cc1Cl
    -3%, 18%, -6, -1.1%
O=C(NCCc1ccccc1)C1CCC(=O)N(Cc2cccc(C(F)(F)F)c2)C1 (stereo not drawn)
    ?, 1%, ·, 2.4%
Cc1nn(-c2ccccc2)c(C)c1C(=O)OC(C)C(=O)NC1CCCCC1C (stereo not drawn)
    -5%, ·, ·, 2.0%
Cc1ccc(S(=O)(=O)N2CCN(CC(=O)N/N=C/c3ccc(Br)s3)CC2)cc1
    17%, 0%, -7, 5.4%
COc1ccc([C@@H]2[C@@H]3C(=O)N(C(C)(C)C)C(=O)[C@@H]3[C@]3(Cc4ccc(Cl)cc4)C(=O)N(c4cccc(C)c4)C(=O)N23)cc1
    0%, 0%, ·, 0.6%
CCCNC(=O)C1CCC(CNS(=O)(=O)c2cccc3nsnc23)CC1 (stereo not drawn)
    -6%, 0%, ·, 1.1%
COc1ccc(C(CNC(=O)c2ccc(S(=O)(=O)Nc3ccccc3C)cc2)N2CCOCC2)cc1 (stereo not drawn)
    4%, ·, ·, -0.7%
COc1ccc(/C=C/c2cc(C(=O)O)c3ccccc3n2)cc1
    -18%, ?, -13, -4.9%
O=C(Nc1ccc(F)cc1)N1CCN(C(=O)C2CCCO2)CC1 (stereo not drawn)
    -19%, -9%, ·, -5.4%
Cc1cc(NC(=O)CSCC(=O)N(C)Cc2ccc(Cl)c(Cl)c2)no1
    -7%, -3%, ·, -0.4%
CCC(=O)N1CCN(c2ccc(NC(=O)c3c(F)c(F)c(OC)c(F)c3F)cc2)CC1
    6%, -1%, -2, 1.4%

Next entries:
Below each compound – Rango release inh, miR-21 FLuc, GLA inh pH 4.5, Rango complex inh
CN(c1ccccc1)S(=O)(=O)c1ccc(C(=O)Nc2nnc(C3CC3)s2)cc1
    -23%, -1%, -8, -5.1%
Cc1ccc(-n2cc(CNCCn3nc(C)cc3C)c(-c3ccc(F)cc3)n2)cc1
    22%, 17%, -15, -0.6%
COC(=O)C1=C(C)NC(C)=C(C(=O)OC)C1c1ccc(C)o1
    1%, -2%, -2, -0.2%
O=C(Nc1ccccc1)Nc1ccc2nnsc2c1
    10%, 1%, -20, 0.5%
COc1ccc(C(=O)NCc2nnc(SCC(=O)N3CCCC3)o2)cc1OC
    35%, 2%, ·, ?
CCN1C(=O)N[C@@H](c2cccc(C(F)(F)F)c2)C(C(C)=O)=C1C
    0%, ·, 1, 1.5%
S=C(NCCN1CCCCC1)Nc1ccccc1
    21%, -3%, -1, 3.1%
Cc1occc1-c1nnc(SCC(=O)NC(C)(C)C)n1C(C)c1ccccc1 (stereo not drawn)
    -12%, 3%, 2, 0.7%
CN(C1CCCCC1)S(=O)(=O)c1cc2c3c(c1)CCN3C(=O)CC2
    23%, ·, ·, -2.2%
C/C(=C/c1ccccc1)C(=O)N1CCN(c2ccccc2F)CC1
    -1%, -10%, ·, 0.7%
CCOC(=O)N1CCN(CC(O)COCc2ccc(Cl)cc2)CC1 (stereo not drawn)
    -13%, 0%, 0, 0.6%
CCc1cccc(NC(=O)Cn2c3[n+](c4ccc(C(F)(F)F)cc42)CCCCC3)c1
    -2%, 3%, 1, 0.4%
COc1ccc(CC(NC(C)=O)C(=O)NC2CCN(C(=O)c3ccncc3)CC2)cc1OC (stereo not drawn)
    -18%, 0%, ·, -0.9%
Cc1[nH]c2ccc(C(=O)NCCN3CCOCC3)cc2c1C
    0%, -2%, ·, -0.8%
COc1ccc(C(=O)c2c(-c3ccc(OC)cc3)oc3ccccc23)cc1
    1%, ·, ·, -2.3%
O=C(NCc1ccccn1)Nc1ccc(F)cc1F
    8%, -19%, ·, -3.3%
S=C(Nc1ccc2nccnc2c1)N1CCCC1
    -5%, -34%, 2, -0.6%
O=C(CSc1nnc(-c2c[nH]c3ccccc23)o1)NCC1CCCO1 (stereo not drawn)
    -13%, ·, ·, 0.1%
Cc1ccc(C(C)(C)C)cc1S(=O)(=O)N1CCC(C(=O)N2CCN(c3ccc(O)cc3)CC2)CC1
    3%, ·, ·, 0.2%
Cc1cc(O)c(C(C)C)cc1NC(=O)Cn1nc(C)c2ccccc2c1=O
    44%, -2%, -2, 1.4%
CN(C)c1ccc(C(=S)N2CCCCCC2)cc1
    -7%, -26%, 2, 0.2%
CC(C)=C1SC(N2CCN(c3ccc(Cl)cc3)CC2)=NC1=O
    6%, -12%, 5, ?
N#Cc1cccc(S(=O)(=O)NCC(=O)OCC(=O)c2ccc[nH]2)c1
    -1%, 0%, 1, -2.1%
Cc1cc(C)n(CCNCc2c(C(=O)N3C[C@@H](C)O[C@@H](C)C3)nc3ccc(Cl)cn23)n1
    -4%, -2%, -24, 6.5%
O=C(NCc1cccc(Cl)c1)C1CCC(=O)N(CCCN2CCOCC2)C1 (stereo not drawn)
    -12%, 0%, ·, 1.2%
Cc1ccc(S(=O)(=O)N2CCC(C(=O)OC(C)C(=O)N3CCOCC3)CC2)cc1 (stereo not drawn)
    -18%, ·, ·, 3.1%
CCOc1ccccc1NC(=O)NC1CCCc2ccccc21 (stereo not drawn)
    -3%, 12%, ·, -0.6%
O=C(CCn1nnnc1CN1CCOCC1)N1CCC(c2ccccc2Cl)C1 (stereo not drawn)
    -11%, -3%, ·, -5.1%
COc1ccc(C(c2c(O)nc[nH]c2=O)c2c(O)nc[nH]c2=O)cc1
    -11%, 6%, 4, -4.0%
CNC(=S)N/N=C/c1c(C)nn(-c2cccc(Cl)c2)c1Cl
    -9%, -3%, 2, -3.6%
CSc1ncccc1C(=O)OCC(=O)c1cc(C)n(CC2CCCO2)c1C (stereo not drawn)
    9%, -65%, -3, 2.4%
O=C(N/N=C\c1cccc(F)c1)c1ccc(-c2ccccc2)cc1
    1%, -11%, ·, 1.0%
CCCC(C(=O)O)N1C(=O)/C(=C2\C(=O)N(C)c3ccccc32)SC1=S (stereo not drawn)
    ?, 0%, 2, -0.4%

Three entries from above, bar-delimited.
structure | Rango release inh | miR-21 FLuc | GLA inh pH 4.5 | Rango complex inh
Cc1cc(=O)[nH]c(SCC(=O)Nc2nnc(SCc3ccccc3)s2)n1 | 11% | 3% | 0 | 2.0%
COc1ccc(OCCCC(=O)NCCc2ccccc2)cc1 | -8% | -3% | -8 | 0.0%
N#CCCCSc1ncccc1-c1nc2ccccc2[nH]1 | 9% | -35% | -5 | 1.2%

Screens as filed in PubChem.
